# Source: PubChem
# PrP UTR inh = inhibition of PrP 5' UTR reporter expression; cell-based PrP 5' UTR mRNA reporter, plate reader; inhibition, % (test concentration not listed); 0.35% of 340,000 active; AID 488862, 2010;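 active = every replicate at 50% or more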;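 note: 0 = median of the neutral control wells; tested in H4 reporter cells; numbers are from one replicate; inactives centre near -14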
# Bead autofluor = compound fluorescence in toxin protease inhibitor counterscreen. compound autofluorescence counterscreen, microsphere flow cytometry; hits give high values. fluorescence intensity (test concentration not listed). 3.1% of 360,000 active;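 active = at least 3 SD above the mean of all compounds, about 16000 in these data; inconclusive = too few beads counted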;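 note: 100 nL of 1 mM stock went into each well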
# ugtP null kill = growth inhibition of ugtP-null S. aureus, primary screen, RN4220 ugtP deletion, OD600; growth inhibition, % (no concentration beside the values); AID 1259309, 2017; 0.54% of 330,000 active; 16 h; some inactives read as strong as hits;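 active = z-score under -3 and OD600 up to 0.15 on both plates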;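 note: plate controls were untreated wells for no effect and antibiotic for full effect; wells of about 80 µL received 100 nL stock; the first replicate is given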
# BJeLR viability = MLPCN primary cell-based screen for lethality selective to Ras in HRASV12 cells; BJeLR (HRASV12) viability, CellTiter-Glo ATP luminescence, 48 h; reference of the scale not given here; inhibition, % (test concentration not listed); 0.17% of 300,000 active; AID 1554, 2009;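 active = replicate mean above 50%; inconclusive = above 50% but judged a plate artefact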;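 note: 50 nL library stock added to about 25 µL; numbers are from one replicate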
# Mtb hypoxia rep = PubChem AID 1159583; M. tuberculosis hypoxia-regulated fluorescent reporter, fluorescence; 0.1% of 300,000 active; fluorescence inhibition, % (concentration not given with the values);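 active = 35 to 45% if threefold the growth effect, above 45% if 1.5-fold the growth effect; inactive = the rest, general growth blockers included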;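 note: wells of about 50 µL received 100 nL stock; 0% = vehicle wells and 100% = reference inhibitor wells; whole bacteria with a GFP reporter of the hypoxia response; strong numbers were not always called active; many hits fall short of the cut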
# Sa RN4220 lethal = growth inhibition of S. aureus RN4220, primary screen, OD600. 16 h. inhibition, % (concentration not given with the values). 0.33% of 330,000 active. AID 1259311, 2017;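 active = z-score of -3 or lower and OD600 up to 0.18 on both plates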;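 note: plate controls were untreated cells for no effect and reference antibiotic for full effect; stock transfer was 100 nL into about 80 µL; one replicate is shown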
# Mtb hypoxia rep growth = recorded beside Mtb hypoxia rep, whose call it bears; growth inhibition, %; measured here: M. tuberculosis growth (absorbance);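 0% = vehicle and 100% = reference antibiotic; read after six days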
# The depositor's hits bear a star; ? = inconclusive; · = no result given; & = joins results of further samples.
entry	SMILES	PrP UTR inh	Bead autofluor	ugtP null kill	BJeLR viability	Mtb hypoxia rep	Mtb hypoxia rep growth	Sa RN4220 lethal
1	Cc1ccccc1-c1nnc(SCC(=O)Nc2cccc(C)c2C)o1	-10	19363*	1	1	-3	8	-1.1
2	Cc1ccc(Cn2ccc(NC(=O)c3cc(C(C)C)on3)n2)cc1	46	4883	2	3	7	7	-11
3	COC(=O)c1ccc(/C=N/NC(=O)c2ccc3nc[nH]c3c2)cc1	-10	5122	·	-1	·	·	·
4	Cc1cc(C(F)(F)F)nc(SCC(=O)NC2CC3CCC2C3)n1 (stereo unspecified)	-2	3578	3	-9	10	10	2.7
5	Cc1cc(OCC(=O)Nc2cccc(S(=O)(=O)NC3=NCCCCC3)c2)ccc1Cl	-22	2030	-3	3	3	4	2.9
6	CC12CCC3c4ccc(OCC(=O)O)cc4CCC3C1CCC2=O (stereo unspecified)	-19	3835	6	·	9	7	6.5
7	Cc1cc(C)c(NC(=O)Cn2cc3c(n2)CCCC3)c(C)c1	-1	6075	-4	-4	·	·	-0.8
8	COc1cc(SC)ccc1C(=O)N1CCN(S(=O)(=O)/C=C/c2ccccc2)CC1	-26	4549	-4	·	1	-1	1.3
9	CCS(=O)(=O)Nc1ccc(C2=NN(C(=O)c3ccccc3)C(c3cccs3)C2)cc1 (stereo unspecified)	-11	4456	-3	-4	-3	-4	2.4
10	COc1ccc(C)cc1Nc1nc(N)c2cc(OC)c(OC)cc2n1	-14	3765	11	5	3	-2	0.1
11	CCC1Oc2ccc(C)cc2N(CC(=O)NCc2ccccc2OC)C1=O (stereo unspecified)	-4	5756	-3	3	4	8	4.7
12	Cc1cc(C)cc(N(CC(=O)Nc2c(C)n(C)n(-c3ccccc3)c2=O)S(C)(=O)=O)c1	-17	3870	-2	2	2	6	2.3
13	O=C1c2cccc(OCC(=O)N3N=C(c4cccs4)CC3c3ccc(F)cc3)c2CCN1Cc1cccnc1 (stereo unspecified)	-3	2525	-22	-11	-1	0	-4.4
14	Cc1oc(N=Cc2ccc(Cl)cc2Cl)c(C#N)c1C	·	·	-4	·	11	6	6.5
15	OC(C#CCN1CCOCC1)(c1ccccc1)C1CCCCC1 (stereo unspecified)	-17	2852	-7	-7	·	·	-0.4
16	COc1cccc(-c2nc(C(N)=O)c3[nH]c(=O)n(-c4cccc(Cl)c4)c3n2)c1OC	-7	5197	9	4	12	4	1.5
17	O=C(CCNC(=O)c1ccccc1Cl)Nc1cccc(S(=O)(=O)N2CCCCC2)c1	-22	5187	1	·	11	0	3.2
18	Cc1ccc(C)c(N2CCN(C(=O)C3CCCN(c4ncnc5c4nc4n5CCCCC4)C3)CC2)c1 (stereo unspecified)	-19	5193	-8	4	-5	-1	0.0
19	Cc1cccc(OCc2nnc(SCC(=O)Nc3ccc(N4CCOCC4)cc3)o2)c1	6	4237	8	-12	4	6	0.4
20	Cc1cccc(C)c1N(CC(=O)N1CCOCC1)S(C)(=O)=O	-20	4033	14	-2	13	14	6.5
21	CCC(=O)c1ccc(N2CCN(C(=O)c3cc([N+](=O)[O-])ccc3N3CCN(C)CC3)CC2)c(F)c1	3	8419	-3	-3	-8	8	3.1
22	CC(OC(=O)CN1C(=O)c2ccccc2C1=O)C(=O)NC1(C#N)CCCCC1 (stereo unspecified)	13	2782	9	·	·	·	2.5
23	CC(=O)OCc1c(C(F)(F)F)nn(C)c1Oc1ccccc1	20	17428*	-5	3	1	-1	-4.0
24	Cc1ccc(C(=O)OCc2nnc(-c3ccc(Br)cc3)o2)cc1	-16	4691	8	2	8	5	6.1
25	C#Cc1ccc(C2C=C(C(=O)OCC=C)OC(OCCCCO)C2)cc1 (stereo unspecified)	·	·	6&9	·	3&20	-2&7	7.1&7.8
26	O=C(NNC(=O)c1cc2ccccc2cc1O)Nc1ccccc1F	-25	6551	-8	-1	8	-1	7.0
27	CC(Oc1ccc(F)cc1)c1ccnc2nc(N=CN(C)C)nn12 (stereo unspecified)	·	·	10	·	1	-5	7.0
28	O=C(Cc1ccccc1[N+](=O)[O-])N/N=C/c1cccnc1	-20	6543	·	-1	·	·	·
29	Cc1ccc(C)c(/C(O)=C2\C(=O)C(=O)N(CCCn3ccnc3)C2c2ccncc2)c1 (stereo unspecified)	-16	2967	6	-1	·	·	2.6
30	C=C1C(=O)OC2CC(C)C3C4OC4C(=O)[C@@]3(C)C(O)C12 (stereo partly specified)	·	·	9	·	·	·	17
31	O=C(/C=C/c1cccc(F)c1)Nc1cc(S(=O)(=O)N2CCOCC2)ccc1N1CCCC1	-31	2597	7	-9	5	2	2.3
32	CCn1c(Cc2ccccc2)nnc1SCc1ccc([N+](=O)[O-])cc1	-7	2597	2	-3	-2	-3	0.2
33	CCCCNC(=O)CC1Nc2ccccc2NC1=O (stereo unspecified)	-20	6202	5	3	11	5	5.0
34	CCCOc1ccc(S(=O)(=O)NCCN2CCOCC2)c2ccccc12	-7	2111	-1	-3	·	·	4.1
35	COC(=O)N/N=C/c1c[nH]c2ccccc12	-13	2133	·	-9	·	·	·
36	CN(C)CCNC=C(C(=O)Nc1ccc(Cl)cc1Cl)C(=O)Nc1ccc(Cl)cc1Cl	-7	2623	-20	9	·	·	23

# 2 compounds from above with just Sa RN4220 lethal, Mtb hypoxia rep growth and Mtb hypoxia rep:
entry | Molecule | Sa RN4220 lethal | Mtb hypoxia rep growth | Mtb hypoxia rep
14 | Cc1oc(N=Cc2ccc(Cl)cc2Cl)c(C#N)c1C | 6.5 | 6 | 11
15 | OC(C#CCN1CCOCC1)(c1ccccc1)C1CCCCC1 (stereo unspecified) | -0.4 | · | ·

# Next part:
entry	SMILES	PrP UTR inh	Bead autofluor	ugtP null kill	BJeLR viability	Mtb hypoxia rep	Mtb hypoxia rep growth	Sa RN4220 lethal
37	O=C(NCCN1CCOCC1)c1ccccc1N1C(=O)[C@@H]2Cc3c([nH]c4ccccc34)C(c3ccc(F)cc3)N2C1=O (stereo partly specified)	-8	5703	2	-9	·	·	-0.2
38	COc1ccc(N2CC(NS(=O)(=O)c3ccc(F)cc3)CC2=O)cc1 (stereo unspecified)	11	5804	2	-2	1	11	-1.5
39	O=C(Nc1ccccc1Cl)c1c(F)c(F)c(F)c(F)c1F	-3	3233	-5	0	9	19	3.9
40	Cc1ccc(-c2cc(C(=O)NN=Cc3c(C)nn(C)c3C)c3ccccc3n2)c(C)c1	·	·	8	·	6	4	3.9
41	C/C(CC(=O)NC(C)(C)C)=N\NC(=O)COc1ccc(C)cc1Br	-21	3397	·	-4	·	·	·
42	COc1ccc(NC(=O)c2ccccc2CC[N+](=O)[O-])cc1	-19	3437	5	6	8	-1	7.5
43	O=S(=O)(NCc1ccccc1)c1ccc(S(=O)(=O)N(Cc2cccs2)CC2CCCO2)cc1 (stereo unspecified)	·	8650	13	-4	7	2	7.0
44	CC(=O)Nc1sc(NN=Cc2cccc(Cl)c2)nc1-c1cccs1	·	·	-2	·	1	7	6.9
45	Cc1c(NC(=O)c2nn3c(C(F)(F)F)cc(-c4ccccc4)nc3c2Br)c(=O)n(-c2ccccc2)n1C	-7	2521	12	4	1	-4	0.7
46	Cc1cc(C)c2nc(C(F)(F)F)nc(N3CC(C)OC(C)C3)c2c1 (stereo unspecified)	-14	2867	16	1	6	2	-3.3
47	COc1cc(C(=O)NCc2ccc(-n3cccc3)cc2)cc(OC)c1OC	-10	4642	0	12	-3	10	12
48	c1nc2nc3c(c(N4CCNCC4)n2n1)CCCC3	·	·	-9	-4	-7	-4	2.3
49	Cc1cc(C(=O)N/N=C/c2cccc([N+](=O)[O-])c2)c(C)n1-c1ccccc1	-41	2543	·	-10	·	·	·
50	CC(=O)N1CCCC1(C(=O)O)c1ccccc1 (stereo unspecified)	-28	4549	2	2	16	19	5.9
51	OCCNc1nnc(-c2ccccc2)c(-c2ccccc2)n1	-21	5094	6	-2	5	20	3.1
52	Cc1c(CC(=O)NCCC(C)C)c(=O)oc2cc3c(cc12)CCC(C)(C)O3	-25	3670	7	7	5	8	0.8
53	O=C(Nc1ccccc1N1CCN(c2ccc(F)cc2)CC1)c1ccccc1	-10	4687	8	-10	·	·	-1.9
54	O=c1cc(O)nc(SC23CC4CC(CC(C4)C2)C3)[nH]1	-24	6887	-5	2	7	15	9.3
55	CCN(CC)Cc1c[nH]c2c(C(=O)OC)cccc12	-3	4271	-7	-3	6	6	1.8
56	Cc1cccc(N2CCN(C(=O)CCS(=O)(=O)c3ccc4c(c3)oc(=O)n4C)CC2)c1C	5	4436	12	-4	9	1	4.2
57	O=C(NCCc1ccc(Cl)cc1Cl)C1=CC=CN2CCS(=O)(=O)N=C12	-1	?	3	·	-4	3	4.6
58	CCC/C(=N\NC(=O)CNC(=O)/C=C/c1ccco1)c1ccccc1	-7	6069	·	-2	·	·	·
59	C=CCOC(=O)C1=C(C)NC(=O)NC1/C=C/c1ccccc1OC (stereo unspecified)	-10	2545	2	-11	2	8	6.3
60	O=[N+]([O-])c1ncn(C23CC4CC(CC(C4)C2)C3)n1	0	5171	21	-1	-1	12	-1.8
61	COc1ccc(CCNC(=O)Cc2cccs2)cc1OC	-19	2086	6	-8	9	4	1.3
62	CCOC(=O)c1c(NC(=O)COC(=O)c2cccnc2OCC)sc(C(=O)N(CC)CC)c1C	12	2877	3	·	5	2	4.1
63	CC1(C)CC(=O)C(=Cc2cn(CCC#N)nc2-c2ccc(Cl)cc2)C(=O)C1	-6	2389	3	11	5	9	4.5
64	Cc1cccc(C)c1NC(=S)N/N=C/c1c(Cl)cccc1Cl	-14	2504	·	1	·	·	·
65	COc1ccc(CCNC(=O)c2nnn(-c3cccc(C)c3)c2N)cc1OC	-10	15757	5	1	7	-2	3.2
66	CC1CC(C)CN(C(=O)c2ccc3c(c2NCCO)C(=O)c2ccccc2C3=O)C1 (stereo unspecified)	-13	3763	-1	-9	-81	-6	17
67	O=C(O)c1cccnc1-c1ncccc1C(=O)O	4	4753	0	-2	-4	1	4.4
68	CN(C(=O)COC(=O)C1=COCCO1)C1(C#N)CCCCC1	-5	3105	4	·	4	-2	2.2
69	Cc1nn(C)c(C)c1NC(=O)c1ccc(Cl)cc1	-3	2340	5	6	·	·	2.0
70	C=CCn1c(=NC(=O)c2cccs2)sc2cc(NC(C)=O)ccc21	-9	5891	·	3	·	·	·
71	NC(=O)C1CC(O)CN1c1nc(CN2CCOCC2)nc2scc(-c3ccccc3)c12 (stereo unspecified)	1	5688	-1	-4	7	-6	-0.3
72	COc1ccccc1NC1=CC(=O)CC(c2ccccc2)C1 (stereo unspecified)	-18	8838	11	9	5	3	5.4
73	O=C1C2CC=CCC2C(=O)N1Nc1ccccc1 (stereo unspecified)	-5	4447	0	0	7	-2	3.7
74	O=C(Nc1ccncc1Cl)c1ccncc1	-1	6731	6	-6	9	4	3.0
75	Clc1cccc(Nc2nc(-c3ccncc3)cs2)c1	-30	3850	-14	15	2	0	-6.0

# Among those listed so far, eleven have an aryl methoxy group.
entry	SMILES	PrP UTR inh	Bead autofluor	ugtP null kill	BJeLR viability	Mtb hypoxia rep	Mtb hypoxia rep growth	Sa RN4220 lethal
8	COc1cc(SC)ccc1C(=O)N1CCN(S(=O)(=O)/C=C/c2ccccc2)CC1	-26	4549	-4	·	1	-1	1.3
10	COc1ccc(C)cc1Nc1nc(N)c2cc(OC)c(OC)cc2n1	-14	3765	11	5	3	-2	0.1
11	CCC1Oc2ccc(C)cc2N(CC(=O)NCc2ccccc2OC)C1=O (stereo unspecified)	-4	5756	-3	3	4	8	4.7
16	COc1cccc(-c2nc(C(N)=O)c3[nH]c(=O)n(-c4cccc(Cl)c4)c3n2)c1OC	-7	5197	9	4	12	4	1.5
38	COc1ccc(N2CC(NS(=O)(=O)c3ccc(F)cc3)CC2=O)cc1 (stereo unspecified)	11	5804	2	-2	1	11	-1.5
42	COc1ccc(NC(=O)c2ccccc2CC[N+](=O)[O-])cc1	-19	3437	5	6	8	-1	7.5
47	COc1cc(C(=O)NCc2ccc(-n3cccc3)cc2)cc(OC)c1OC	-10	4642	0	12	-3	10	12
59	C=CCOC(=O)C1=C(C)NC(=O)NC1/C=C/c1ccccc1OC (stereo unspecified)	-10	2545	2	-11	2	8	6.3
61	COc1ccc(CCNC(=O)Cc2cccs2)cc1OC	-19	2086	6	-8	9	4	1.3
65	COc1ccc(CCNC(=O)c2nnn(-c3cccc(C)c3)c2N)cc1OC	-10	15757	5	1	7	-2	3.2
72	COc1ccccc1NC1=CC(=O)CC(c2ccccc2)C1 (stereo unspecified)	-18	8838	11	9	5	3	5.4
